# Mtb hypoxia rep – Mtb hypoxia fluorescent reporter inhibition | 300,000 compounds, 0.1% hits | M. tuberculosis hypoxia-regulated fluorescent reporter, fluorescence | AID 1159583 | fluorescence inhibition, % (test concentration not listed);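 active = 35 to 45% if threefold the growth effect, above 45% if 1.5-fold the growth effect; inactive = the rest, general growth blockers included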;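 also: wells of about 50 µL received 100 nL stock; 0% = vehicle wells and 100% = reference inhibitor wells; whole bacteria with a GFP reporter of the hypoxia response; strong numbers were not always called active; many hits fall short of the cut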
# PrP UTR inh – suppresses PrP 5' UTR mRNA reporter expression | cell-based PrP 5' UTR mRNA reporter, plate reader | AID 488862 | 340,000 compounds, 0.35% hits | inhibition, % (concentration not given with the values);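 active = every replicate at 50% or more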;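 also: 0 = median of the neutral control wells; tested in H4 reporter cells; numbers are from one replicate; inactives centre near -14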
# ugtP null kill – compounds lethal to S. aureus RN4220 ugtP deletion mutant. OD600 growth, 16 h; some inactives read as strong as hits. growth inhibition, % (test concentration not listed). 330,000 compounds, 0.54% hits;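 active = z-score under -3 and OD600 up to 0.15 on both plates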;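 also: plate controls were untreated wells for no effect and antibiotic for full effect; wells of about 80 µL received 100 nL stock; the first replicate is given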
# BJeLR viability – BJeLR cell viability loss. BJeLR (HRASV12) viability, CellTiter-Glo ATP luminescence, 48 h; reference of the scale not given here. 300,000 compounds, 0.17% hits. inhibition, % (concentration not given with the values);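 active = replicate mean above 50%; inconclusive = above 50% but judged a plate artefact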;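 also: 50 nL library stock added to about 25 µL; numbers are from one replicate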
# Sa RN4220 lethal – S. aureus RN4220 growth inhibition | OD600, 16 h | inhibition, % (no concentration beside the values) | 330,000 compounds, 0.33% hits | AID 1259311;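 active = z-score of -3 or lower and OD600 up to 0.18 on both plates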;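 also: plate controls were untreated cells for no effect and reference antibiotic for full effect; stock transfer was 100 nL into about 80 µL; one replicate is shown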
# Autofluor counter – counter-screen for toxin protease inhibitors: compound fluorescence. compound autofluorescence counterscreen, microsphere flow cytometry; stronger effect = higher value. fluorescence intensity (no concentration beside the values). 360,000 compounds, 3.1% hits;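 active = at least 3 SD above the mean of all compounds, about 16000 in these data; inconclusive = too few beads counted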;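 also: 100 nL of 1 mM stock went into each well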
# Mtb hypoxia rep growth – second read-out of Mtb hypoxia rep, no call of its own (marks repeat the call); growth inhibition, %; measured here: M. tuberculosis growth (absorbance);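 0% = vehicle and 100% = reference antibiotic; read after six days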
# * = called active by the depositor; ? = inconclusive; nt = not tested or not shown.
molecule	Mtb hypoxia rep	Mtb hypoxia rep growth	PrP UTR inh	ugtP null kill	BJeLR viability	Sa RN4220 lethal	Autofluor counter
Cc1ccccc1OCCC(=O)OCC(=O)Nc1ccc(N2CCOCC2)cc1	nt	nt	-19	nt	-5	nt	5966
COc1ccc(CC2CN3C(=NCC3Cc3ccc(O)cc3)N2CCNC(=O)c2ccc(C)c(Br)c2)cc1 (configuration not stated)	-13	4	nt	7	nt	-6.3	nt
Cc1c(NS(=O)(=O)c2cc(C(=O)NCCc3ccc(F)cc3)cc(Cl)c2Cl)c(=O)n(-c2ccccc2)n1C	4	-4	14	-1	nt	3.8	4058
O=C(CSc1ccc2c(c1)OCCO2)NC(=O)Cc1ccccc1	7	5	-16	6	-2	-3.1	2405
COC(=O)c1ccc2c(=O)n(CCCCCC(=O)NCc3ccc4c(c3)OCO4)c(=O)[nH]c2c1	-3	5	-24	-17	2	8.8	?
Cc1ccc(C(=O)NCCSC2CCCCC2)cc1S(=O)(=O)Nc1ccccc1	1	2	-20	-15	4	-1.7	13050
COC(CN1C(=O)C(=O)/C(=C(/O)c2ccccc2)C1c1ccccn1)OC (configuration not stated)	13	1	-22	0	4	8.3	2611
COc1ccc(S(=O)(=O)N2CCC(C(=O)N3CCCC3)CC2)cc1	nt	nt	6	2	3	0.0	2410
COc1ccc(NC(=O)/C(Cl)=C(/Cl)S(=O)(=O)Cc2ccccc2)cn1	nt	nt	7	20	-30	11	2883
COc1ccc(/C=C2\C(=O)c3ccccc3OC2c2ccccc2)cc1 (configuration not stated)	3	5	-23	8	-1	0.8	4414
Cc1cccc(C(=O)N/C(=C\c2ccc(C)o2)C(=O)O)c1	7	1	-11	-1	4	2.6	3972
O=C(CCNC(=O)c1ccc(Cl)cc1)Nc1ccc(S(=O)(=O)N2CCCCC2)cc1	-7	-17	-6	2	-6	1.0	nt
COC(=O)[C@@H]1C[C@]2(Br)c3ccccc3N(S(=O)(=O)c3ccccc3)[C@@H]2N1C(=O)OC	nt	nt	4	nt	5	nt	3016
Cc1nc2ccccn2c1C(O)=C1C(=O)C(=O)N(CCN2CCOCC2)C1c1cccnc1 (configuration not stated)	12	13	nt	3	nt	4.2	nt
Cc1ccnc2nc(C(=O)Nc3nnc(CC(C)C)s3)nn12	nt	nt	-25	1	-1	0.4	2597
CCc1cc(C(=O)N2CCCc3ccccc32)sc1C	10	4	-19	0	8	4.0	5234
COc1ccc(S(=O)(=O)Cc2ccc(C(=O)N3CCN(C4CCCCC4)CC3)o2)cc1	nt	nt	1	4	9	2.6	3879
CCN(C(=O)COC(=O)c1cc(=O)[nH]c2ccccc12)c1c(N)n(Cc2ccccc2)c(=O)[nH]c1=O	-5	12	6	-1	nt	-2.8	3613
COc1ccc(Cl)cc1S(=O)(=O)N1CCCC(C(=O)NCC(N)=O)C1 (configuration not stated)	nt	nt	-35	3	14	3.6	3372
CCSC1=NC(C)(C)C=C(C)N1	nt	nt	-30	9	-9	-1.9	2159
CCN1CCN(C(c2cccs2)C(C)NC(=S)NC2CCCCC2)CC1 (configuration not stated)	3	8	-3	6	10	0.1	5071
CCOP(=O)(c1ccc(N(C)C)cc1)C(O)c1c(Cl)cccc1Cl (configuration not stated)	0	6	-12	-2	-2	5.3	3837
COc1cc(/C=N/NC(=O)c2cccc(N3CCCC3=O)c2)ccc1O	nt	nt	-25	nt	-5	nt	3776
COc1cc(NC(=O)c2ccco2)c(OC)cc1NC(=O)c1cc(OC)c(OC)c(OC)c1	9	15	-31	-7	6	4.6	10786
COc1ccccc1C(=O)COC(=O)Cc1n[nH]c(=O)c2ccccc12	-8	-3	-19	9	-7	1.2	5329
CCN1C(=O)C(CC(=O)Nc2c(C)cccc2C)SC1=Nc1ccc(S(N)(=O)=O)cc1 (configuration not stated)	nt	nt	-18	0	-7	-4.8	5020
O=C(COC(=O)c1ccccc1O)NC(=O)NCc1ccccc1	1	6	5	-1	nt	3.8	6043
CC(C)CN1CCC(=O)N([C@H](CO)Cc2ccccc2)CC1	nt	nt	-12	nt	7	nt	2927
CC(C)C(NS(=O)(=O)c1cccs1)C(=O)NCc1ccc2c(c1)OCO2 (configuration not stated)	1	6	-32	-10	-9	6.6	5427
Cc1cccc(CN2CCC(CNC(=O)Nc3ccccc3F)CC2)c1	12	4	-21	-1	nt	-0.4	3895
COC(=O)c1c(NC(=O)CSc2n[nH]c(N)n2)sc(C)c1C	5	-3	-19	1	1	3.1	3478
Cc1ccc(CC2(O)CC(C)N(C)CC2C)c(C)c1 (configuration not stated)	nt	nt	-16	0	-2	11	3589
O=c1c2ccccc2nnn1CSc1ccccc1F	6	3	-20	2	11	11	8630
O=C1NC(=O)C(CCc2ccncc2)(CCc2ccncc2)C(=O)N1C1CCCCC1	11	1	-8	0	-5	9.0	4871
Nc1nccc(/C=C/c2c(Cl)cccc2Cl)n1	-2	3	-9	28	-5	6.6	2943
CC(=O)Nc1ccc(C(=O)NCC(=O)OCc2c(F)cccc2Cl)cc1	2	8	-28	-1	1	5.6	2750
O=C(/C(=C/O)N=Nc1ccccc1)c1cccs1	-1	5	-24	-3	-1	-2.3	4030
O=[N+]([O-])c1ccc2c(c1)C(O)n1nc(-c3ccccc3)nc1S2 (configuration not stated)	3	4	-32	6	16	-1.2	4281
COc1ccc(N=C2C(=O)Nc3ccc(C)c(Br)c32)cc1	17	7	-28	5	1	2.4	4203
CCOc1ccc(OCC)c(S(=O)(=O)n2ccnc2C)c1	-7	-8	-8	5	-13	2.8	2706
C=CCSc1nc2sc3c(c2c(=O)n1CC)CCC3	4	1	5	-19	-8	5.9	3743
Cc1ccc(-n2nc3c(N4CCC(C(=O)NCCc5cccs5)CC4)nnc(C)c3c2C)cc1	nt	nt	-19	nt	3	nt	12797
Cc1onc(-c2c(F)cccc2Cl)c1C(=O)OCc1nnc(-c2ccccc2)o1	23	8	-10	1	nt	2.2	4115
CN(Cc1ccccc1)C(=O)c1ccc(NC(=O)C2CCCN(C(=O)OC(C)(C)C)C2)cc1 (configuration not stated)	5	2	-4	-1	nt	2.5	3788
Cc1ccccc1NC(=O)Cc1nc(COC(=O)C(C)C)cs1	2	-1	3	10	-1	3.1	5285
Cc1ccc(C)c(N=Cc2ccc(-c3ccc([N+](=O)[O-])cc3)o2)c1	0	-10	-14	8	1	-9.2	4870
COCCNS(=O)(=O)c1ccc(-c2ccc(Cl)cc2)cc1	15	7	-22	-2	9	5.1	3373
NC(=NOC(=O)Cc1ccc([N+](=O)[O-])cc1)c1cccc(Br)c1	7	9	nt	4	nt	6.1	nt
Cc1ccc(CN(C(=O)c2ccccc2C)C2CCS(=O)(=O)C2)o1 (configuration not stated)	2	-4	-1	6	7	2.7	4468
CC(C)(C)c1ccc(S(=O)(=O)N2CCCC2C(=O)N2CCOCC2)cc1 (configuration not stated)	3	8	-33	-6	1	3.4	3659
Cc1cccc(-n2ncc3c(NCCCN4CCCC4=O)ncnc32)c1	15	22	-61	9	0	3.7	3874
CCCCCCCCN1C(CC(=O)O)c2ccc(C(F)(F)F)cc2S1(=O)=O (configuration not stated)	3	10	nt	13	nt	20	nt
Cc1nc([N+](=O)[O-])c(Br)n1Cc1ccc(Cl)c(Cl)c1	15	17	-6	25	34	8.9	4102
CCc1ccc2c(CN3CCC(C(=O)OC)CC3)cc(=O)oc2c1	0	-4	-15	-1	-5	3.9	4133
CN1C(=O)/C(=C/c2ccco2)SC1=Nc1ccc(N2CCOCC2)cc1	3	1	-56	1	-5	5.7	2576
CC1CCCN(C(=O)CN2CCC(c3nc4ccc(Cl)cc4[nH]3)CC2)C1 (configuration not stated)	17	10	-11	3	11	2.3	4545

# More structures follow:
molecule	Mtb hypoxia rep	Mtb hypoxia rep growth	PrP UTR inh	ugtP null kill	BJeLR viability	Sa RN4220 lethal	Autofluor counter
CCOc1ccc(NS(=O)(=O)c2ccc(C(=O)NCC(c3cccs3)N3CCOCC3)cc2)cc1 (configuration not stated)	2	6	-21	7	1	-1.6	5465
COc1cc(C(O)P(=O)(OC(C)C)c2ccc(N(C)C)cc2)cc(OC)c1OC (configuration not stated)	3	3	-22	0	-5	2.3	8091
CCN(CC)S(=O)(=O)c1ccc(C(=O)OCC(=O)NCc2ccco2)cc1	-6	3	0	6	2	10	4546
COC(=O)[C@]1(CC(C)C)N[C@H](c2ccc(-c3ccc(OC)cc3)cc2)[C@@H]2C(=O)N(C)C(=O)[C@@H]21	nt	nt	-15	nt	-9	nt	3202
CCOCCCNC(=O)c1cc2c(=O)n3cccc(C)c3nc2s1	-4	11	-12	-1	9	-1.4	3747
O=c1c2c([nH]n1-c1ccccc1)CCCC2	11	4	-16	-4	2	1.2	4816
CN(C)S(=O)(=O)c1ccc(NC(=O)Cn2c(-c3ccccc3)noc2=O)cc1	-14	4	10	-1	-2	-2.6	10179
Cc1onc(-c2c(F)cccc2Cl)c1C(=O)Nc1cccc2nsnc12	6	-10	-20	4	-1	7.4	22508*
Cc1ccccc1-c1nc(C#N)c(N2CCC(C)CC2)o1	2	-1	-18	5	2	7.3	2860
c1csc(C2=NNC(=NC3CCCCC3)SC2)c1	3	-5	-45	6	4	0.7	3412
CC(=O)C(C)n1c(CN(C)Cc2ccccc2)nc2c1c(=O)n(C)c(=O)n2C (configuration not stated)	nt	nt	-18	nt	-2	nt	3502
Cn1c(=O)c(C(=O)Nc2ccccn2)c(O)c2ccccc21	5	7	-51	0	3	11	4750
COc1ccc(/C=N/NS(=O)(=O)c2ccc(C)cc2)cc1	nt	nt	-15	nt	9	nt	3188
O=S(=O)(c1ccc(Br)s1)N1CCc2ccccc2C1	7	2	-26	11	6	12	5916
Cc1ccc[n+](C(C)C(=O)Nc2ccc(C)c([N+](=O)[O-])c2)c1 (configuration not stated)	14	14	-18	-1	5	6.4	9635
Cc1ccccc1OCCC(=O)N(CC(=O)Nc1ccccc1C(F)(F)F)Cc1ccco1	1	-2	-16	7	4	5.9	3748
CCN1C(=O)C2C(C1=O)C(c1cccc(OC)c1)N1C(=O)c3ccccc3NC(=O)C21 (configuration not stated)	3	12	nt	2	nt	1.0	nt
CC1CN(C(=S)Nc2ccccc2F)CC(C)O1 (configuration not stated)	0	11	-12	2	5	-2.4	3610
CC(C#N)Sc1nnc(-c2ccccc2F)n1C1CC1 (configuration not stated)	6	0	-11	1	-11	-3.0	3744
CCOC(=O)c1ccc(NC(=O)CCc2nnc3ccc(N4CCCC4)nn23)cc1	nt	nt	-8	2	6	-3.7	4713
CSc1nnc(-c2ccccc2SC)o1	12	7	-25	-1	10	1.7	4177
COc1ccc(Cl)cc1NC(=O)CN(C)CC(=O)Nc1ccc(Br)cc1	3	1	-5	-8	2	-19	3826
COP(=O)(NC(=O)C(Cl)(Cl)Cl)OC	5	-2	-11	2	2	5.4	5647
Cn1c(N)c(S(=O)(=O)NCc2ccccc2)c(=O)n(C)c1=O	4	-3	-22	0	5	1.8	2988
O=C(O)CSCC(=O)Nc1ccc(S(=O)(=O)N2CCCCC2)cc1	nt	nt	11	6	15	5.6	4274
Cc1ccc(NC(=O)C(C)S)cc1 (configuration not stated)	nt	nt	-11	nt	-1	nt	2976
O=[N+]([O-])c1ccc(COc2ncnc3ccccc23)cc1	4	11	-1	-6	-6	2.0	4466
CCCN(CC(=O)Nc1ccc(F)c(F)c1F)CC(=O)Nc1c(C)n(C)n(-c2ccccc2)c1=O	3	0	-9	3	nt	1.9	3973

# High-throughput results: PubChem BioAssay, several laboratories
